Compound activity from PubChem BioAssay.
YjeE inh – YjeE (TsaE) inhibition, E. coli; purified YjeE, fluorescence polarisation of a bound ADP probe; P0AF67; 71,000 compounds, 0.05% hits; AID 605; Potency, µM; active = well fitted falling curve; inconclusive = weaker or top-dose-only fall, or a rising curve; inactive = flat or poorly fitted curve;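 note: top concentration of the series not given in the record; excess ADP was the control for the full effect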
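Fluorescence polarization of a BODIPY Texas Red–ADP probe (2 uM) bound to purified YjeE (10 uM) was read after 15 min room-temperature incubation with compounds. Loss of polarization marks inhibitors; ADP serves as titrated control.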
PK Bst – alters activity of Bacillus stearothermophilus pyruvate kinase. Potency, µM. 51,000 compounds, 1.2% hits. partly purified Bacillus stearothermophilus pyruvate kinase, luminescence ATP production; ribose 5-phosphate activator present at AC10; in the data active means potency below about 11 µM; inconclusive means mostly about 12 µM to 25 µM; inactive means weaker than that;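 the screen sought inhibitors and activators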;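 note: potency is the fitted concentration of half-maximal effect; scaled between full activation by ribose 5 phosphate and full inhibition by luteolin; about four in five hits inhibit and the cells do not say which; series up to 57 µM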
Active calls of the source: *; i = inactive; ? = inconclusive; · = no result given.

Results follow in this order: YjeE inh, PK Bst
COc1ccc2c(c1OC)C(=O)O[C@H]2[C@H]1c2cc3c(cc2CCN1C)OCO3
  i, ·
O=C(O)CCl
  i, ·
N#CCCCCC#N
  i, ·
C[C@H]1CN(C2CCC(C#N)(c3ccc(F)cc3)CC2)CC[C@@]1(C(=O)O)c1ccccc1 (stereo partly drawn)
  i, ·
N[C@@H](Cc1c[nH]c2ccccc12)c1nnc(SCc2ccc(Cl)cc2)o1
  i, >57
CCCCn1c(O)c(C(C)=Nc2ccc(OCC)cc2)c(=O)[nH]c1=O
  i, ·
CCC(=NCC1CCCO1)c1c(O)[nH]c(=O)[nH]c1=O (stereo not drawn)
  i, >57
CCCN(CCC)[C@@H]1CCc2ccc(O)cc2C1
  i, ·
O=C(C(Cc1ccccc1)NS(=O)(=O)c1ccc(F)cc1)N1CCC2(CC1)OCCO2 (stereo not drawn)
  i, >57
Fc1ccc(C(OCCN2CCN(C/C=C\c3ccccc3)CC2)c2ccc(F)cc2)cc1
  i, ·
S=c1[nH]c2ccccc2[nH]1
  i, ·
O=C/C=C/c1ccccc1
  i, ·
CCCc1nc2ccccc2c(=O)n1-c1cccc(OC)c1
  i, >57
CNCCc1c[nH]c2ccc(O)cc12
  i, ·
Clc1cccc(C(Cl)(Cl)Cl)n1
  i, ·
Cc1[nH]c2ccc(O)cc2c1CCN
  i, ·
N[C@H](Cn1oc(=O)[nH]c1=O)C(=O)O
  i, ·
C=CCN1C(=O)C2(C(C(=O)OCC)=C(N)Oc3ccccc32)C2=C1CCCC2=O (stereo not drawn)
  i, >57
C/C(=C\C=C/[C@@H](C)C(=O)O)[C@H]1CN[C@H](C(=O)O)[C@@H]1CC(=O)O
  i, ·
CCCBr
  i, ·
CC(C)(C)NC[C@H](O)c1cc(Cl)c(N)c(Cl)c1
  i, ·
COC(=O)C(O)(c1c(C)[nH]n(-c2ccccc2)c1=O)C(F)(F)F (stereo not drawn)
  i, >57
Cc1cc(Cl)ccc1OCC(=O)N1CCN(C)CC1
  i, ·
O=C(NC1(C(F)(F)F)Oc2ccccc2O1)N1CCC2(CC1)OCCO2
  i, >57
COC(=O)c1cc(C(O)(C(=O)OC)C(F)(F)F)c(/N=C/N(C)C)s1 (stereo not drawn)
  i, >57
Oc1ccc2c3c1O[C@H]1c4oc5ccccc5c4C[C@]4(O)[C@H](C2)N(CC2CC2)CC[C@@]314
  i, ·
O=C(c1ccco1)N1CCC2(CC1)CN(Cc1ccncc1)C2
  i, ·
O=C(c1ccc2c(c1)ncn2C1CCCCCC1)N1CCC2(CC1)OCCO2
  i, >57
Cn1c(O)c(C=NC2CC3CCC2(C)C3(C)C)c(=O)[nH]c1=O (stereo not drawn)
  i, >57
CC(=O)OC1=CC2=CC[C@H]3[C@H]4CCC(=O)[C@@]4(C)CC(=O)[C@]3(S)[C@]2(C)CC1
  i, ·
CC[C@H](Oc1ccc(Cl)cc1)C(=O)OC1C[C@H]2CC[C@@H](C1)N2C (stereo partly drawn)
  i, ·
COc1ccc(CC2C(=O)NC(=O)NC2=O)c(OC)c1
  i, >57
C/C=C/c1ccc2c(c1)OCO2
  i, ·
CCCCCn1c(=O)c(C(=O)Nc2ccncc2)c(O)c2ccccc21
  i, ·
C[C@@H]1O[C@H](C[N+](C)(C)C)CS1
  i, ·
O=C(Oc1ccccc1)N1CCC[C@@]2(CCN(Cc3ccccc3)C2)C1
  i, ·
Fc1ccc(C(OCCN2CCN(CCCc3ccccc3)CC2)c2ccc(F)cc2)cc1
  i, ·
CC(C)(Cl)Cl
  i, ·
CCN(CC)S(=O)(=O)c1ccc(N=Cc2c(O)n(-c3ccccc3)c(=O)[nH]c2=O)cc1
  i, ·
O=C(c1ccco1)N1CCC[C@@]2(CCN(Cc3ccncc3)C2)C1
  i, ·

Looked up by structure from the entries so far, 3 records:
Results follow in this order: YjeE inh, PK Bst
CCC(=NCC1CCCO1)c1c(O)[nH]c(=O)[nH]c1=O (stereo not drawn)
  i, >57
C/C(=C\C=C/[C@@H](C)C(=O)O)[C@H]1CN[C@H](C(=O)O)[C@@H]1CC(=O)O
  i, ·
O=C(c1ccc2c(c1)ncn2C1CCCCCC1)N1CCC2(CC1)OCCO2
  i, >57

Next section:
Results follow in this order: YjeE inh, PK Bst
N#CCCC#N
  i, ·
COc1ccc(NC(=O)N2CCCC3(CCN(C(=O)Oc4ccccc4)CC3)C2)cc1
  i, ·
CN1CC[C@@]2(c3cccc(O)c3)Cc3nc4ccccc4cc3C[C@H]2C1
  i, ·
CN1[C@H]2CC(=O)C[C@@H]1[C@@H](O)C2
  i, ·
CCn1c(O)c(C=NCc2cccs2)c(=O)[nH]c1=O
  i, >57
Cc1ccc(O)c(CN2CCN(c3ccccc3)CC2)c1
  i, >57
O=C1CC[C@]2(O)[C@H]3Cc4ccc(O)c5c4[C@@]2(CCN3CC2CC2)[C@@H]1O5
  i, ·
NC(=O)OCCSc1nnc(-c2cccc(C(N)=S)c2)o1
  i, >57
C[C@@]12CC[C@H](O)C[C@@H]1CC[C@H]1[C@@H]2C[C@@H](O)[C@]2(C)[C@@H](C3=CC(=O)OC3)CC[C@]12O
  i, ·
Cn1cc(C(=O)C(=O)N[C@H]2CN3CCC2CC3)c2ccccc21
  i, ·
CCSC(=O)N1CCCCCC1
  i, ·
C[C@@H]1CC[C@@]2(OC1)O[C@H]1[C@@H](O)[C@H]3[C@@H]4CC[C@H]5C[C@@H](O[C@@H]6O[C@H](CO)[C@H](O[C@@H]7O[C@H](CO)[C@@H](O)[C@H](O[C@@H]8OC[C@@H](O)[C@H](O)[C@H]8O)[C@H]7O[C@@H]7O[C@H](CO)[C@@H](O)[C@H](O[C@@H]8O[C@H](CO)[C@@H](O)[C@H](O)[C@H]8O)[C@H]7O)[C@H](O)[C@H]6O)[C@H](O)C[C@]5(C)[C@H]4CC[C@]3(C)[C@H]1[C@@H]2C
  i, ·
CC1(C)C2CC=C(CN3CCC(O)CC3)C1C2 (stereo not drawn)
  i, >57
COc1ccc(Cn2c(O)c(C=NCCN3CCOCC3)c(=O)[nH]c2=O)cc1
  ·, >26
Oc1cc(Cl)c(Cl)c(Cl)c1
  i, ·
C=CCN1CC[C@]23c4c5ccc(O)c4O[C@@H]2C(=O)CC[C@@]3(O)[C@H]1C5
  i, ·
Cc1cccc(-n2c(C)nc3cc(C(=O)N4CCC5(CC4)OCCO5)ccc32)c1
  i, >57
NC(=O)CN1C[C@@H](O)CC1=O
  i, ·
Cc1nn(-c2ccccc2)c2c1CC1(C(=O)N(C)C(=O)N(C)C1=O)C1CCCCN21 (stereo not drawn)
  i, >57
CC1=CC(C)C(COC(N)=O)(COC(N)=O)C(C)C1 (stereo not drawn)
  i, >57

Arranged by length of the SMILES (lowest first): some entries from above
Results follow in this order: YjeE inh, PK Bst
CCSC(=O)N1CCCCCC1
  i, ·
COc1ccc(CC2C(=O)NC(=O)NC2=O)c(OC)c1
  i, >57
O=C(c1ccco1)N1CCC2(CC1)CN(Cc1ccncc1)C2
  i, ·

(further entries)
Results follow in this order: YjeE inh, PK Bst
COc1cc2c3c(c1OC)-c1cc(O)ccc1CC3NCC2 (stereo not drawn)
  i, >57
CCOC(=O)c1c(C)n(Cc2ccco2)c2ccc(OC)cc12
  i, ·
CN(C)CCc1nc2ccccc2c(=O)n1-c1ccccc1
  i, >57
N[C@H](CCCCCP(=O)(O)O)C(=O)O
  i, ·
CN1CCN(c2nc3ccccc3c(=O)n2-c2ccccc2)CC1
  i, ·
O=C1C=C2C=C[C@H]3C[C@@]2(O1)[C@H]1CCCCN31
  i, ·
OC1(c2ccc(F)cc2)CC2CCC(C1)N2Cc1nnnn1C1CCCC1 (stereo not drawn)
  i, >57
CCCc1cc2c(n1Cc1ccco1)C(C)C1CN(C(=O)c3ccccc3)C(C)(C(=O)OC)C21 (stereo not drawn)
  i, ·
O=C1CCCC2=C1C(c1cccnc1)Nc1ccccc1N2 (stereo not drawn)
  i, ·
C=CC(=C)C
  i, ·
N[C@@H](Cc1c[nH]c2ccccc12)c1nnc(SCc2ccccc2)o1
  i, >57
Cc1c(C(=O)c2cccc3ccccc23)c2cccc3c2n1[C@H](CN1CCOCC1)CO3
  i, ·
CC(C)CC12CN3CCN(CC(C3)C1O)C2 (stereo not drawn)
  i, ·
Cc1ccc(S(=O)(=O)N(C)CCCC(=O)N2CCN(c3ccccn3)CC2)cc1
  i, >57
COCCCn1c(N)c(C(=O)OC(C)COC)c2nc3ccccc3nc21 (stereo not drawn)
  i, >57
CCCCn1c(=O)c(C(=O)Nc2cnccn2)c(O)c2ccccc21
  i, >57
C=CCCl
  i, ·
C[C@@]12CC[C@H]3[C@@H](CC[C@]4(O)C[C@H](O)CC[C@@]34C=O)[C@]1(O)CC[C@@H]2C1=CC(=O)OC1
  i, ·
CCN(CC)Cc1c[nH]c2ccccc12
  i, ·
C=CCOC(=O)C1=C(C)OC(N)=C(C#N)C12C(=O)N(CN1CCOCC1)c1ccccc12 (stereo not drawn)
  ·, >26
COc1cc(OC)c(OC)cc1CNCCc1ccc(OC)c(OC)c1
  i, >57
COc1ccc(C2C(C(=O)N3CCC4(CC3)OCCO4)CC(=O)N2c2ccc(OC)cc2)cc1 (stereo not drawn)
  i, >57
O=C(Nc1ccccc1)N1CC[C@@]2(CCCNC2)C1
  i, ·
O=C(O)CP(=O)(O)c1ccc(Cl)cc1
  i, ·
CN[C@@H]1C[C@H](c2ccc(Cl)c(Cl)c2)c2ccccc21
  i, ·
CC1CCC(NCCc2ccc3c(c2)OCO3)CC1 (stereo not drawn)
  i, >57
CC(C)(C)C(O)(CCc1ccc(Cl)cc1)Cn1cncn1 (stereo not drawn)
  i, ·
C=CC(=O)OCCN(C)C
  i, ·
O=C(O)C[C@H]1NCc2cc3ccccc3nc21
  i, ·
CC(=NCCN1CCOCC1)c1c(O)n(-c2ccccc2C)c(=O)[nH]c1=O
  i, >57
Cc1cc(C)n2c(Br)c(CN3CC4CC(C3)c3cccc(=O)n3C4)nc2n1 (stereo not drawn)
  i, ·
COc1cc(-c2ccc(N)c(OC)c2)ccc1N
  i, ·
NC[C@H](CP(=O)(O)O)c1ccc(Cl)cc1
  i, ·
CCCNS(=O)(=O)c1ccc(OCC(=O)N2CCN(Cc3ccccc3)CC2)cc1
  i, >57
CC(C)CN1CC2(CCN(C(=O)Oc3ccccc3)CC2)C1
  i, ·
C=CCN1C(=O)CSc2ccc(C(=O)N3CCC4(CC3)OCCO4)cc21
  i, >57
c1ccc(CCn2nnnc2CN2CCC(n3nnc4ccccc43)CC2)cc1
  i, >57
COc1ccc(Cn2c(N)c(C(=O)NCc3ccco3)c3nc4ccccc4nc32)cc1
  ?, ·
O=C1c2ccccc2C(=O)N1Cc1nc2ccccc2c(=O)n1-c1ccc(Br)cn1
  i, ·
CC(C)(O)[C@H]1[C@H]2OC(=O)[C@@H]1[C@]1(O)C[C@H]3O[C@]34C(=O)O[C@H]2[C@]14C
  i, ·

Single records, as listed above.
CN1[C@H]2CC(=O)C[C@@H]1[C@@H](O)C2 is listed with YjeE inh = i; PK Bst = ·
CC(C)(Cl)Cl is listed with YjeE inh = i; PK Bst = ·

The list continues.
Results follow in this order: YjeE inh, PK Bst
COC(=O)[C@@H]1C[C@H]1[C@@H](NP(=O)(c1ccccc1)c1ccccc1)c1ccccc1
  i, ·
Cc1ccnc(-n2c(-c3ccco3)nc3ccccc3c2=O)c1
  i, >57
CC[C@H]1[C@@H]2C[C@@H]3[C@@H]4N(C)c5ccccc5[C@@]45C[C@@H]([C@H]2[C@@H]5O)N3[C@@H]1O
  i, ·
Cc1cccc(-n2c(O)c(C=NCc3cccnc3)c(=O)[nH]c2=O)c1C
  i, >57
O=CC=O
  i, ·
Brc1ccc(Oc2ccc(Br)cc2Br)c(Br)c1
  i, ·
Cc1ccccc1C1=NCC(=O)N(CC(=O)NCc2ccco2)c2sc3c(c21)CCCC3
  i, >57
CC(=O)NBr
  i, ·
O=C1NC(=S)NC(=O)C1=Cc1cccc2cc3ccccc3cc12
  i, ·
O=c1[nH]c2c(c(=O)n1C1CCCCC1)CCC2
  i, >57
CCCNC(=O)c1c(N)n(CC2CCCO2)c2nc3ccccc3nc12 (stereo not drawn)
  i, ·
CCOc1cc2[nH]c(=S)n(CCCC(=O)N3CCC4(CC3)OCCO4)c(=O)c2cc1OCC
  i, >57
N[C@@H](Cc1cc(O)c(O)cc1O)C(=O)O
  i, ·
CC1(C)CC(=O)C(C=NCCN2CCN(C(=O)Cc3ccc(F)cc3)CC2)=C(O)C1
  ·, >26
O=C(CN1CC(c2ccccc2)CC1=O)Nc1ccccc1 (stereo not drawn)
  i, ·
O=C(Cn1nc(Cc2cccnc2)c2ccccc2c1=O)N1CCC2(CC1)OCCO2
  i, >57
COc1ccc2c(c1OC)C(=O)O[C@@H]2[C@H]1c2cc3c(cc2CCN1C)OCO3
  i, ·
CCN1CCN(Cc2ccc(C)cc2)CC1
  i, ·
CN(C)C(=O)Oc1ccc(-c2nnco2)cc1
  i, ·
CN1CC[C@@]2(CCCN(C(=O)c3csnn3)C2)C1
  i, ·
CN(C)C(=O)Cl
  i, ·
Cc1c([C@@H](C)[C@H]2NC[C@H](C)C[C@@H]2O)ccc2c1C[C@@H]1[C@H]2CC=C2C[C@@H](O)CC[C@@]21C
  i, ·

An excerpt (hit frequency here may not be typical).
